# Compound activity (PubChem)
# Rango complex inh: Rango-importin beta binding inhibition. Q14974. Rango CFP/YFP FRET sensor + importin beta, 45 min. Potency, µM (doses to about 92.2 µM), without a hit: top-dose inhibition of complex formation. 340,000 tested, 0.031% active; active = rising FRET ratio curve, often small or poorly fitted; inconclusive = mostly compound fluorescence or quenching in the first reads; inactive = flat curves in all reads;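 note: potency is the fitted concentration of half-maximal effect; 0% = DMSO wells and 100% = buffer wells lacking importin beta; nearly all actives have a fitted effect of over 15% in size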
#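 Inhibition scored from the CFP 486 nm/YFP 530 nm FRET ratio 45 min after adding 0.125 microM importin beta to 50 nM Rango biosensor preincubated 5 min with compound (room temperature, PBS with DTT, Tween-20, BSA). No-importin wells as positive control.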
# Rango release inh: prevents RanGTP from dissociating the Rango-importin beta complex; Potency, µM (highest dose often 46.1 µM), for the others: at the top dose activity change, negative = inhibition; O95149+P62826; Biochemical FRET Rango-importin beta, RanGTP-induced dissociation; 340,000 tested, 0.071% active; active means falling FRET ratio curve, often poorly fitted, with flat reads before Ran was added; inconclusive means other falling curves, or compound fluorescence or quenching; inactive means flat or rising ratio curve;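 note: potency is the fitted concentration of half-maximal effect; % of control where 0% means no effect; nearly all actives have a fitted effect of over 45% in size; -100% = wells without RanGTP and RCC1; the record marks most hits as doubtful in a second field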
#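 Rango (0.1 uM)–importin beta (0.25 uM) complex; RanGTP-RCC1 trigger; 45 min RT; CFP/YFP FRET read.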
# GLA inh pH 4.5: alpha-galactosidase A (human) inhibition, pH 4.5; activity change, negative = inhibition, % at 105 µM; P06280; purified enzyme, 4-MU-alpha-Gal fluorescence, pH 4.5; 230,000 tested, under 10 active; inconclusive = small, poorly fitted or top-dose-only inhibition, or a rising curve; inactive = flat fitted curve, though single readings scatter; no compound was filed as active;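 note: 0% = full activity with enzyme and -100% = basal without enzyme; dose as in the result columns while the protocol names 77 µM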
# Target sequence (P06280 whole entry, looked up): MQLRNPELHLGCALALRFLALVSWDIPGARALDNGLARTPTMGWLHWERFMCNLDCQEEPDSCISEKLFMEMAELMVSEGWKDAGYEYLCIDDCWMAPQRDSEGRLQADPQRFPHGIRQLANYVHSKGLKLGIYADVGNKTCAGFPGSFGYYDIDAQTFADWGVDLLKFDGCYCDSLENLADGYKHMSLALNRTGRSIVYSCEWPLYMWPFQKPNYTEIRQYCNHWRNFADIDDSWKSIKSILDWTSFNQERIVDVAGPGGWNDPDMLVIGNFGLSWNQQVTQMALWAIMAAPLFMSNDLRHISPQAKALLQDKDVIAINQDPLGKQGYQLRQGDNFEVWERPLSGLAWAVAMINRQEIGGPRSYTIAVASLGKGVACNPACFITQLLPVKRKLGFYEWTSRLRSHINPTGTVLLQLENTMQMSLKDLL
# miR-21 reporter: miR-21 reporter, rising signal; 340,000 tested, under 10 active; HeLa miR-21 FLuc reporter, luciferase, 48 h; Potency, µM (doses to about 38.3 µM), inactives show top-dose reporter change, positive = more light; AID 2288; active = well fitted rising curve with a large enough effect; inconclusive = small, poorly fitted or top-dose-only effect; inactive = no such curve, though single readings can be large or run the other way;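 note: % of control where 0% means no effect; miR-21 action dims this reporter so a rising signal means less miR-21 action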
#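 Luminescence from a firefly luciferase reporter carrying a miR-21 binding site downstream, stably expressed under a CMV promoter in HeLa cells that make miR-21 endogenously, reports miRNA modulation after 48 h compound exposure up to approximately 40uM final.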
# Starred values were filed as active, the others as inactive; ? = inconclusive; nt = not tested or not shown; & = joins results of further samples; [ ] = dose if it differs, or a comment. Only part of the results is shown; count on the stated rates, not on these rows.
SMILES,Rango complex inh,Rango release inh,GLA inh pH 4.5,miR-21 reporter
CCOC(=O)c1sc(-c2ccccc2)cc1NC(=O)c1ccc(S(=O)(=O)N(CCOC)CCOC)cc1,-4.4%,10%,0,-1%
CCCCN(C)C(=O)CCCCn1c(=O)[nH]c2cc(OCC)c(OCC)cc2c1=O,4.0%,-7%,-1,-10%
CCCCCC(=O)Nc1ccc(S(=O)(=O)Nc2ccc(Cl)nn2)cc1,-0.3%,-5%,-8,-6%
NC(=O)CC(NC(=O)c1ccccc1)c1ccc(NCc2ccc(F)cc2)c([N+](=O)[O-])c1 (centres undefined),3.7%,37%,-4,0%
COc1ccccc1C(=O)COC(=O)c1ccc(Cl)nc1,4.5%,11%,nt,nt
Clc1ccc(-c2cc3ccccc3nc2N2CCCC2)cc1,0.3%,-16%,2,1%
Cc1ccc2c(c1)c1c3n2CCCNC3CCC1 (centres undefined),-1.4%,-2%,2,-6%
COc1ccccc1NC(=O)CSc1nc2ccccc2c(=O)n1CCNC(C)=O,-1.5%,7%,-3,-16%
COc1cc2cc(CN(CCN3CCCC3)C(=O)Nc3ccccc3Cl)c(=O)[nH]c2cc1OC,2.0%,5%,7,-11%
CCCCC(=O)NCCNC(=O)c1cc(OCC(F)(F)F)ccc1OCC(F)(F)F,3.4%,1%,8,0%

# An excerpt from above in order of number of heavy atoms, high to low.
SMILES,Rango complex inh,Rango release inh,GLA inh pH 4.5,miR-21 reporter
CCOC(=O)c1sc(-c2ccccc2)cc1NC(=O)c1ccc(S(=O)(=O)N(CCOC)CCOC)cc1,-4.4%,10%,0,-1%
COc1cc2cc(CN(CCN3CCCC3)C(=O)Nc3ccccc3Cl)c(=O)[nH]c2cc1OC,2.0%,5%,7,-11%
Clc1ccc(-c2cc3ccccc3nc2N2CCCC2)cc1,0.3%,-16%,2,1%

# New compounds follow:
SMILES,Rango complex inh,Rango release inh,GLA inh pH 4.5,miR-21 reporter
CCCCC/C=C/C1=CC(=O)C[C@H](c2ccc(OC)cc2)C1,-2.7%,9%,nt,nt
Cc1cccc(C)c1NC(=O)C1CCCN1S(=O)(=O)c1ccccc1 (centres undefined),3.3%,8%,nt,0%&0%
Nn1c(Cc2ccccc2)nc2ccccc2c1=O,-0.6%,0%,nt,nt
O=C(O)CN(CC(=O)O)CC(=O)O,-3.0%,1%,nt,nt
O=C1Nc2ccccc2C1=Nc1ccc(Br)cc1,3.7%,10%,nt,-6%
CC(C)(C)CC(C)(C)NCC(O)COc1ccc2c(c1)CCC2 (centres undefined),0.6%,0%,nt,nt
C=CCn1c(N)c(C(=O)Nc2cccc(C)c2)c2nc3ccccc3nc21,?,?,0,-1%
COc1cc(C)c(C#N)c(OC)n1,5.3%,-5%,3,-3%
COc1ccccc1CNC(=S)NCc1ccc(F)cc1,3.3%,8%,nt,-7%
COc1cc(OC)cc(C(=O)NCCC(=O)NCCc2ccc(OC)c(OC)c2)c1,-1.5%,4%,6,-12%
Cc1ccc(C)c2[nH]c(=O)c(CCNC(=O)c3ccco3)cc12,-3.3%,0%,9,-7%
O=C(COc1cc2oc(=O)c3c(c2cc1Cl)CCCC3)N1C[C@H]2C[C@@H](C1)c1cccc(=O)n1C2,-6.1%,-18%,nt,-3%
Nc1nc(N)c2cc([N+](=O)[O-])ccc2n1,-1.6%,10%,nt,nt
CCCCCCCCc1c(O)nc(-n2[nH]c(C)c(CCO)c2=O)[nH]c1=O,-0.4%,-7%,4,0%
COc1ccc(C[C@H]2CN3C(=NC[C@@H]3Cc3ccc(O)cc3)N2CCNC(=O)c2ccc(C)c(Br)c2)cc1,-1.0%,8%,2,?
CCCc1nnc(NC(=O)Cn2c(=O)oc3ccccc32)s1,-0.1%,-6%,1,-3%
CN(C)NC1CCS(=O)(=O)C1 (centres undefined),-0.8%,6%,3,1%
COc1ccc(S(N)(=O)=O)cc1C(=O)NNC(=O)C1COc2ccccc2O1 (centres undefined),-1.5%,0%,nt,nt
CC12/C(=N/O)C3C4CC5C3/C(=N/O)C1C5C42 (centres undefined),-0.1%,1%,-3,-7%
Cc1nnc(NC(=O)C2CCN(S(=O)(=O)c3ccc(F)c(F)c3)CC2)o1,-2.2%,-16%,nt,nt
Cc1ccc(-n2cc(C(=O)O)c(=O)cc2C)c(C)c1,-0.8%,1%,-9,-10%
Cc1nn(CC(=O)Nc2ccc(N3CCOCC3)cc2)c(C)c1Br,-2.3%,0%,nt,0%
CCOc1ccc(CCNC(=O)COC(=O)COc2ccc(C(=O)CC)cc2)cc1OCC,-0.7%,-9%,nt,nt
Cc1ccc(C)c(NC(=O)C2=CCN(S(=O)(=O)c3ccc(F)cc3)CC2)c1,4.6%,-11%,5,-1%
O=C(Nc1ccc2oc(-c3ccccc3)nc2c1)C1CCCO1 (centres undefined),-1.2%,1%,0,-58%
CCOC(=O)N1CCN(C(=O)COc2ccc(Cl)cc2C)CC1,?,-3%,-3,-6%
CCn1c(Cc2cccs2)nnc1SCC(=O)c1ccc(C)cc1,-0.8%,10%,-10,-32%
CCN(Cc1ccccc1)C(=O)CSc1nc(C)cc(C)c1C#N,0.5%,-5%,3,-15%
CSC1=C(C#N)C(c2ccncc2)C(C(=O)Nc2ccccc2)=C(C)N1 (centres undefined),-5.3%,-22%,-1,1%
CCOc1ccc(OCCCC(=O)Nc2cc(S(=O)(=O)N3CCOCC3)ccc2N2CCOCC2)cc1,-6.3%,15%,nt,nt

# Entries of single compounds, quoted from the list:
# Cc1nn(CC(=O)Nc2ccc(N3CCOCC3)cc2)c(C)c1Br is listed with Rango complex inh: -2.3%; Rango release inh: 0%; GLA inh pH 4.5: nt; miR-21 reporter: 0%
# CCn1c(Cc2cccs2)nnc1SCC(=O)c1ccc(C)cc1 is listed with Rango complex inh: -0.8%; Rango release inh: 10%; GLA inh pH 4.5: -10; miR-21 reporter: -32%

# (cont.)
SMILES,Rango complex inh,Rango release inh,GLA inh pH 4.5,miR-21 reporter
CCCCN(CC)Cc1ccc(CNC(=S)Nc2cccc(F)c2)o1,-3.4%,-5%,-2[21.1 µM],2%
C=CCNC(=O)CC1C(=O)NCCN1Cc1c(F)cccc1Cl (centres undefined),-2.0%,-12%,6,-5%
C=CC[C@@H](CC(=O)N(CCO)Cc1ccccc1)C(=O)N[C@@H](C)COC(=O)[C@@H](CC=C)Cc1ccc(F)cc1,-0.1%,7%,nt,nt
COCCNC(=O)[C@@]1(C)C=C[C@@H](Cc2ccccc2)N1C(=O)c1ccccc1,1.4%,-2%,6,-36%
CN1CCN(CC(=O)Nc2cc(N3CCOCC3)ccc2[N+](=O)[O-])CC1,-3.0%,-18%,-4,-11%
O=C(OCc1nnc(-c2ccccc2)o1)c1ccc2ccccc2n1,-2.5%,-11%,-12,-21%
COc1ccc(CCN2Cc3c(cccc3[N+](=O)[O-])C2=O)cc1OC,-1.9%,-10%,nt,-12%
Cc1cccc(NC(=O)c2cc(NC(=O)C3CC=CCC3C(=O)O)ccc2N2CCOCC2)c1 (centres undefined),0.6%,16%,3,-8%
O=C(Cn1cnc2c(nnn2Cc2ccccc2F)c1=O)NCC1CCCO1 (centres undefined),-4.1%,3%,4,-8%
Cc1nc2ncnn2c(N2CCCC(C(=O)Nc3ccc4c(c3)CCC4)C2)c1C (centres undefined),3.1%,10%,11,15%
O=C(CCC(=O)n1ncc2ccccc21)NCc1ccccc1Cl,5.7%,-3%,nt,2%
Cc1cc(NC(=S)NC(=O)C2CC2)ccc1Br,0.0%,-18%,-6,-38%
COc1ccc(CN(C)Cc2nc3cc(OC)c(OC)cc3c(=O)[nH]2)c(OC)c1,0.3%,3%,3,-8%
O=C(/C=C/c1ccccc1)Nc1ccc(C(=O)N2CCCCC2)cc1,-1.1%,15%,-8,-29%
CCC1=NN(C(=O)c2ccc([N+](=O)[O-])cc2)C(O)(c2ccccc2)C1 (centres undefined),5.9%,13%,nt,17%
Cc1ccc(CNC(=O)N2CCN(S(=O)(=O)c3ccccc3)CC2)cc1,-5.0%,8%,nt,1%
COc1ccccc1CCC(=O)Oc1ccc(C#N)cc1OC,-1.2%,-7%,nt,-1%
COc1ccc(-c2nc(CN(C)C(C)c3ccon3)c(C)o2)c(C)c1C (centres undefined),-0.4%,0%,-15,0%
Cc1ccc(NC(=O)CSc2nnc(CNC(=O)c3ccccc3F)o2)cc1Cl,-1.8%,0%,nt,3%
CCc1ccc(C(=O)CN2C(=O)NC(C)(CCc3ccccc3)C2=O)cc1 (centres undefined),-5.7%,5%,5,0%
COc1ccccc1NC(=O)[C@@H]1CCCN1S(=O)(=O)c1ccc(Cl)cc1,2.8%,2%,nt,nt
Nc1nc(-c2cccc(NS(=O)(=O)c3ccccc3)c2)cs1,0.1%,24%,6,1%
CCc1nnc(NCC(=O)N2CCc3ccccc32)s1,-0.6%,-5%,7,-5%
CCCCCCn1c(N2CCCC2)nc2c1c(=O)[nH]c(=O)n2C,1.1%,19%,nt,-8%
O=C(N/C(=C/c1ccc(Br)cc1)c1nc2ccccc2[nH]1)c1ccco1,-0.2%,0%,-14,-21%
CCN(CC)S(=O)(=O)c1ccc(OC)c(NC(=O)OCc2ccccc2)c1,1.7%,1%,nt,-5%
Cc1ccnc2nc(C(=O)Nc3nc4ccccc4s3)nn12,7.3%,8%,-3,-45%
COc1ccccc1NC(=S)NCCc1ccc(S(N)(=O)=O)cc1,3.9%,-2%,0,5%
O=C(Nc1cc(C(F)(F)F)ccc1Cl)C(Sc1n[nH]c(=O)[nH]c1=O)c1ccccc1 (centres undefined),4.0%,36%,?,0%
COc1ccccc1C(=O)Nc1ccccc1N1CCN(C(=O)c2ccc(Cl)cc2)CC1,-1.4%,-8%,nt,17%
Cc1ccccc1NC(=O)Cc1nc(COC(=O)c2ccc([N+](=O)[O-])cc2)cs1,1.4%,-11%,nt,nt
Cc1ccccc1S(=O)(=O)N(CC(O)CN1CCCCC1)c1ccccc1 (centres undefined),5.8%,-3%,nt,-5%
CC1CCCCC1NC(=O)Cn1ncc2ccccc21 (centres undefined),1.7%,6%,11,-7%
CCN(C[C@H]1N[C@@](CC)(C(=O)OC)[C@H]2C(=O)N(Cc3ccccc3)C(=O)[C@@H]12)S(=O)(=O)c1ccc(C)cc1,1.0%,0%,nt,nt
CSc1cccc(NC(=O)CCNC(=O)c2ccco2)c1,-5.9%,7%,-2,-11%
Fc1ccc(Cn2nnnc2CN2CCN(C3CCCCC3)CC2)cc1,-0.4%,-16%,0,-1%
CC1CCc2c(nc3ncnn3c2N2CCN(c3ccccc3F)CC2)C1 (centres undefined),2.6%,11%,-3,-5%
CC1CCN(C(=O)c2cccc(NC(=O)c3cccs3)c2)CC1,0.3%,-7%,nt,7%
CCN(CC)CCN1C(=O)C(=O)/C(=C(/O)c2ccc(C)cc2)C1c1cccnc1 (centres undefined),-1.1%,13%,6,5%
COc1cc(C(Nc2ccccn2)c2ccc3ccc(C)nc3c2O)cc(OC)c1O (centres undefined),-1.3%,8%,-3,25%
CCOc1ccc(S(=O)(=O)NCCC(=O)N2CCC(Cc3ccccc3)CC2)cc1,-1.3%,20%,nt,8%
Cc1ccccc1OCC(=O)OCC(=O)NC1CCCCCC1,-0.4%,-28%,nt,nt
CN(C)CCOC1(Cc2ccc(F)cc2)CCC(C(C)(C)C)CC1 (centres undefined),-0.1%,-3%,nt,nt
CCNC(=O)c1ccccc1-c1nc(-c2ccccc2OC)no1,-0.8%,2%,2,-1%
CC(NC(=O)/C(=C/c1cccc([N+](=O)[O-])c1)NC(=O)c1ccco1)C(=O)O (centres undefined),-4.7%,-2%,4,1%
COc1ccc(O)c(/C=N/NC(=O)c2c(C)nnn2-c2nonc2N)c1,-3.4%,-4%,-9,3%
O=C(Nc1ccccn1)c1csc2c1CCCC2,-0.3%,1%,7,-40%
Cc1cc(NC(=O)c2c(-c3c(F)cccc3Cl)noc2C)no1,0.5%,-14%,-2,13%
CC(C)CC(C(=O)NC(C)(C)C)N(Cc1cccs1)C(=O)c1snc(C(N)=O)c1N (centres undefined),?,7%,3,7%
C=CCn1c(SCC)nc2sc3c(c2c1=O)CCc1ccccc1-3,1.0%,-1%,2,-2%
Cc1ccc(NC(=O)c2ccc(S(=O)(=O)N3CCCCCC3)cc2)nc1,-0.5%,-7%,nt,nt
